# From PubChem
# Rango dissoc inh: inhibition of RanGTP-driven Rango-importin beta dissociation; O95149+P62826; Biochemical FRET Rango-importin beta, RanGTP-induced dissociation; Potency, µM (doses to about 46.1 µM), without a hit: at the highest dose activity change, negative = inhibition; 0.071% of 340,000 active; AID 540253; active means falling FRET ratio curve, often poorly fitted, with flat reads before Ran was added; inconclusive means other falling curves, or compound fluorescence or quenching; inactive means flat or rising ratio curve;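 note: potency is the fitted concentration of half-maximal effect; % of control where 0% means no effect; nearly all actives have a fitted effect of over 45% in size; -100% = wells without RanGTP and RCC1; the record marks most hits as doubtful in a second field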
#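 Recombinant Rango FRET biosensor (EYFP–snurportin 1 IBB–cerulean CFP10) at 0.1 uM premixed with 0.25 uM importin beta in PBS, 1 mM DTT, 0.02% Tween-20, 0.1% BSA. Compound added 5 min; RanGTP-RCC1 (0.6 uM Ran, 2 mM GTP, 0.2 uM RCC1) then triggers release, read at 45 min.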
# Rango-impB inh: inhibitors of Rango-importin beta complex formation; 0.031% of 340,000 active; Q14974; Rango CFP/YFP FRET sensor + importin beta, 45 min; Potency, µM (highest dose often 92.2 µM), for the others: at the top dose inhibition of complex formation; active = rising FRET ratio curve, often small or poorly fitted; inconclusive = mostly compound fluorescence or quenching in the first reads; inactive = flat curves in all reads;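 note: potency is the fitted concentration of half-maximal effect; 0% = DMSO wells and 100% = buffer wells lacking importin beta; nearly all actives have a fitted effect of over 15% in size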
# Target sequence (Q14974 whole entry, looked up): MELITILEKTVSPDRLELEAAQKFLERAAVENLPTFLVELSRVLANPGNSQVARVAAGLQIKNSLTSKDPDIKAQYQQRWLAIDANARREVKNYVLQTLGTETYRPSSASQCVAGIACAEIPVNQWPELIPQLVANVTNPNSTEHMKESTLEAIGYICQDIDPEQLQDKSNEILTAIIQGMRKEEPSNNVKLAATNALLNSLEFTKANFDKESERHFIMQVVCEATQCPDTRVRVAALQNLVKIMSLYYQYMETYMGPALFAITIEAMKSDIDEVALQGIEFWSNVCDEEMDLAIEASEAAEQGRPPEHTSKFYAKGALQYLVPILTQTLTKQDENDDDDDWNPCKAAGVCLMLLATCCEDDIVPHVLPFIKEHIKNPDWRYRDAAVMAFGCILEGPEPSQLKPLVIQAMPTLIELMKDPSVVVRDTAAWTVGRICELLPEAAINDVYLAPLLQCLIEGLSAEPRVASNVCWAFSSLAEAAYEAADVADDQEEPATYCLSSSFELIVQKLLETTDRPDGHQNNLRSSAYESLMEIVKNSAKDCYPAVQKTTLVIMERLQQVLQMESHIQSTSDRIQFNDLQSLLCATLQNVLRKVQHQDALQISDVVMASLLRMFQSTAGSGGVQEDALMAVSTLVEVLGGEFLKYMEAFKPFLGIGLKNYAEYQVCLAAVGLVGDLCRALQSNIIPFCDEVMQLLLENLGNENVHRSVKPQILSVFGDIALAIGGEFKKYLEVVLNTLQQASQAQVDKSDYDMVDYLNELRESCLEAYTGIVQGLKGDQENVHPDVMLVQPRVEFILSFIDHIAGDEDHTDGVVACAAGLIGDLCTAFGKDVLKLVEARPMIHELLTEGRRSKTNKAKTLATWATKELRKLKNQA
#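 Inhibition scored from the CFP 486 nm/YFP 530 nm FRET ratio 45 min after adding 0.125 microM importin beta to 50 nM Rango biosensor preincubated 5 min with compound (room temperature, PBS with DTT, Tween-20, BSA). No-importin wells as positive control.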
# GLA inh pH 4.5: alpha-galactosidase A (human) inhibition, pH 4.5 | activity change, negative = inhibition, % at 105 µM | purified enzyme, 4-MU-alpha-Gal fluorescence, pH 4.5 | 230,000 tested, under 10 active | P06280; inconclusive = small, poorly fitted or top-dose-only inhibition, or a rising curve; inactive = flat fitted curve, though single readings scatter; no compound was filed as active;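 note: 0% = full activity with enzyme and -100% = basal without enzyme; dose as in the result columns while the protocol names 77 µM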
# miR-21 FLuc: miR-21 reporter, rising signal | Potency, µM (top dose mostly 38.3 µM), for the others: at the top dose reporter change, positive = more light | HeLa miR-21 FLuc reporter, luciferase, 48 h | 340,000 tested, under 10 active | AID 2288; active = well fitted rising curve with a large enough effect; inconclusive = small, poorly fitted or top-dose-only effect; inactive = no such curve, though single readings can be large or run the other way;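 note: % of control where 0% means no effect; miR-21 action dims this reporter so a rising signal means less miR-21 action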
#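 Using DMEM plus 10% FBS, HeLa miR-21-FLuc cells are incubated with test compounds (final up to about 40uM) for 48 hours; firefly luciferase signal is then imaged following reagent-mediated lysis.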
# * marks the source's active call; other numbers are inactive results; ? = inconclusive; . = not tested or not shown; & = joins results of further samples. This is a subset, so the mix of outcomes need not match the whole.
miR-21 FLuc,Rango-impB inh,Rango dissoc inh,GLA inh pH 4.5,Compound
1%,-5.4%,2%,-3,O=C(CO/N=C/c1ccc(Cl)cc1Cl)NNC(=O)c1ccc(Cl)cc1Cl
-5%,7.8%,-11%,.,O=C(O)CCN=CC1=C(O)CC(c2ccccc2)CC1=O (centres undefined)
-3%,-6.5%,-8%,-9,COc1ccc(OC)c(NC(=O)COC(=O)CSc2ccc(Cl)cc2)c1
-4%,-0.3%,-4%,0,CCOCC(=O)Nc1ccc([N+](=O)[O-])cc1OC
3%,0.1%,7%,-1,COc1ccc(NC(=O)C2(c3cccs3)CCOCC2)cc1
-12%,1.6%,-2%,.,O=C(N/N=C/c1ccc2c(c1)OCO2)C(=O)Nc1cccc(Cl)c1
-9%,-1.1%,-16%,-2,O=C1CN(C(=O)CSc2nnnn2-c2ccc(Cl)cc2)c2ccccc2N1
.,3.3%,13%,.,C#CCOCCOCCOCCNc1nc(N2CCN(C(=O)[C@H](CCCN=C(N)N)n3cc(C(N)[C@@H](C)CC)nn3)CC2)nc(N2CCN(C(=O)[C@H](CC(N)=O)n3cc([C@@H](N)C(C)C)nn3)CC2)n1 (some centres undefined)
2%,-3.9%,14%,.,CCCn1nc(C(=O)NNC(=O)CCCOc2ccc(C)cc2)c2ccccc2c1=O
-2%,2.9%,-1%,2,CCN(c1cccc(C)c1)S(=O)(=O)c1cnc[nH]1
-7%,3.1%,1%,7,C=CCn1c(SCC(=O)Nc2ccc3c(c2)OCCO3)nnc1-c1ccco1
.,3.7%,?,.,Cc1c(C(=O)NC(=S)N(Cc2ccccc2)c2ccccn2)cccc1[N+](=O)[O-]
-1%,0.6%,21%,.,CC(O)c1ccc(Oc2cnccn2)cc1 (centres undefined)
3%,0.1%,1%,.,CCOc1ccc(NC(=O)CSc2nnnn2C2CCCC2)cc1
.,-3.7%,8%,.,O=[N+]([O-])c1csc2ccccc12
-7%,-1.0%,6%,3,O=C(CN1CCC(n2nnc3cc(C(F)(F)F)ccc32)CC1)N1CCc2ccccc21

# 4 compounds from above, sorted by formula weight, smallest number first:
miR-21 FLuc,Rango-impB inh,Rango dissoc inh,GLA inh pH 4.5,Compound
-2%,2.9%,-1%,2,CCN(c1cccc(C)c1)S(=O)(=O)c1cnc[nH]1
3%,0.1%,1%,.,CCOc1ccc(NC(=O)CSc2nnnn2C2CCCC2)cc1
-7%,3.1%,1%,7,C=CCn1c(SCC(=O)Nc2ccc3c(c2)OCCO3)nnc1-c1ccco1
.,3.7%,?,.,Cc1c(C(=O)NC(=S)N(Cc2ccccc2)c2ccccn2)cccc1[N+](=O)[O-]

# Additional compounds follow.
miR-21 FLuc,Rango-impB inh,Rango dissoc inh,GLA inh pH 4.5,Compound
.,0.1%,3%,.,O=C(COC(=O)c1ccc2ncsc2c1)NCc1ccc(Cl)cc1
-7%,-0.9%,-3%,4,CN(Cc1ccccc1)C(=S)Nc1ccc(OC(F)F)cc1
0%,-4.6%,-13%,0,COCCCNC(NC(=O)c1ccc(Cl)cc1)C(Cl)(Cl)Cl (centres undefined)
-9%,-0.7%,17%,-8,O=S(=O)(c1ccc(N2CCCC2)cc1)C(F)(F)F
-69%,2.5%,5%,.,Cc1ccc(OCC(=O)O/N=C(\N)c2ccncc2)c(C)c1
-1%,-2.9%,-23%,0,NC(=O)c1ccc(NC(=O)COC(=O)CCc2ccc(S(=O)(=O)N3CCCCC3)cc2)cc1
-2%,1.8%,-3%,2,O=C(Cn1nc(-c2ccccc2)ccc1=O)NCC1COCCO1 (centres undefined)
-11%,?,-15%,-17,OCCN(CCO)c1nc2ccccc2[nH]1
1%,1.1%,7%,.,C[C@H](NS(=O)(=O)OCC(Cl)(Cl)Cl)C1CC1c1ccccc1 (some centres undefined)
0%,-0.6%,-4%,.,COc1ccc(C(=O)N(C)CCCC2CCCC2)cc1OC1CCN(C(C)=O)CC1
-3%,1.3%,4%,3,Cc1ccc(C(=O)NCc2n[nH]c(=S)n2-c2ccccc2)cc1[N+](=O)[O-]
-20%,-0.3%,-4%,4,COC(=O)Nc1ccc(S(=O)(=O)Nc2cnc3ccccc3n2)cc1
-5%,1.6%,-16%,1,CCN(Cc1ccccc1)C(=O)c1ccc(SC)cc1OC
-7%,-6.4%,-4%,-11,Cn1c(CN2CCOCC2)nnc1SCC(=O)Nc1ccc2c(c1)OCCO2
.,-2.9%,-15%,.,COc1ccc2oc(C(=O)Nc3ccc(C)cn3)c(C)c2c1
-3%,0.7%,7%,.,CCn1c(CC(=O)Nc2ccccc2Cl)nnc1SCC(=O)NC1CCCC1
-8%,-0.7%,11%,-6,COc1ccc(C(=O)/C=C/c2ccc(F)cc2)c(OC(=O)c2ccc([N+](=O)[O-])cc2)c1
.,0.1%,9%,.,C=CCn1c(SC(C)C(=O)NCC2CCCO2)nnc1-c1ccc(OC)cc1 (centres undefined)
.,-0.8%,-7%,.,CC(C)(C)S(=O)(=O)N1Cc2ccc(CO)cc2[C@H]1CCO
1%,-1.3%,-14%,-3,CC(C(=O)Nc1ccccc1)N(C)CCOc1ccc(Br)cc1 (centres undefined)
.,5.6%,1%,.,O=C(CSC1=NS(=O)(=O)c2cc(Cl)ccc2N1)NCCc1ccccc1
-2%,2.7%,13%,9,CC1=C(C#N)CCC(=O)N1Cc1c(C)cc(C)cc1C
-2%,-1.1%,0%,.,O=C(O)CCN1C(=O)c2ccccc2Sc2ncccc21
0%,?,-15%,-1,COC(=O)C1=C(C(=O)c2ccc(C)cc2)C(c2ccc(OC)c(OC)c2)n2nnnc2N1 (centres undefined)
.,-0.1%,-6%,.,CC(C)[C@H](NC(=O)c1ccccc1F)C(=O)OCC(=O)NC1CC1
2%,?,-9%,-7,COc1ccc(C2c3[nH]c4ccccc4c3CCN2CCCn2cccn2)cc1C (centres undefined)
4%,0.1%,-12%,6,O=C(CN1CCN(C(=O)c2ccco2)CC1)Nc1ccc(Cl)c(S(=O)(=O)N2CCOCC2)c1
5%&-56%,-0.4%,-25%,-1,COc1cc(-c2nc3cnccn3c2Nc2ccc(C(C)C)cc2)ccc1O
-7%,-0.6%,6%,-1,CCc1ccc(N(C(=O)Cn2nnc(-c3ccccc3)n2)C(C(=O)NC2CCCCC2)c2ccccn2)cc1 (centres undefined)
3%,1.3%,-12%,-2,CCOC(=O)N1CCN(C(=O)CN(c2ccccc2)S(C)(=O)=O)CC1
-6%,2.8%,11%,.,O=C1/C(=C/c2ccc([N+](=O)[O-])cc2)CCC1C1CCCC1 (centres undefined)
.,0.8%,-6%,.,COc1ccc(C(=O)c2ccc(C)cc2)c(OC)c1OC
-6%,-0.3%,27%,.,O=[N+]([O-])c1cccc2c(S(=O)(=O)N3CCCCC3)cccc12
-49%,-3.7%,0%,.,Cc1c(C(=O)N2CCC[C@H]2CO)oc2c(F)cccc12
.,3.1%,-12%,.,Nc1c(NC=O)c(=O)n(Cc2ccccc2)c(=O)n1Cc1ccccc1
.,-1.8%,-8%,.,COc1cccc(-c2ccc3c(c2)C2CC3CCN2C(=O)c2ccc(Cl)cc2)c1 (centres undefined)
7%,3.5%,-12%,.,CCOc1ccc(C(C)=O)cc1COc1ccc(-c2nnco2)cc1
-3%,-1.8%,1%,.,CC1Cc2ccccc2N1C(=O)CN1CCCCC1 (centres undefined)
-10%,-0.2%,10%,-18,O=C(N/N=C/c1cn(-c2ccccc2)nc1-c1cccs1)c1ccccc1F
-4%,-1.5%,0%,-3,N/C(=N\S(=O)(=O)c1cc(C(F)(F)F)cc(C(F)(F)F)c1)c1ccccc1

# As a short view, part of the list above:
miR-21 FLuc,Rango-impB inh,Rango dissoc inh,GLA inh pH 4.5,Compound
-6%,-0.3%,27%,.,O=[N+]([O-])c1cccc2c(S(=O)(=O)N3CCCCC3)cccc12
-49%,-3.7%,0%,.,Cc1c(C(=O)N2CCC[C@H]2CO)oc2c(F)cccc12

# The list goes on:
miR-21 FLuc,Rango-impB inh,Rango dissoc inh,GLA inh pH 4.5,Compound
.,2.6%,-16%,.,O=C(CSc1nnc(C2CC2)n1C1CC1)c1ccc(Br)s1
.,-0.6%,-18%,.,CCCCn1c(N)c(N(CC(C)C)C(=O)CN2C(=O)c3ccccc3C2=O)c(=O)[nH]c1=O
-2%,-2.5%,0%,2,Cn1cccc1C(=O)c1ccc(Cl)cc1Cl
-4%,-2.1%,-15%,5,COC(=O)c1ccccc1NC(=O)c1ccc(COc2cccc3ccccc23)o1
-1%,-1.4%,33%,1,O=C(CSc1nnc(-c2ccc3c(c2)OCO3)n1-c1ccccc1)c1ccc(Cl)cc1
-4%,-0.7%,-9%,.,FC(F)(F)c1ccc(CN2CCN(Cc3ccco3)CC2)cc1
1%,3.7%,23%,.,CS(=O)(=O)c1ccc(C(=O)OC2CCOC2=O)cc1[N+](=O)[O-] (centres undefined)
-3%,-2.6%,-3%,13,CCN1C(=O)/C(=C\c2cn(-c3ccccc3)nc2-c2cccnc2)SC1=S
2%,0.7%,6%,.,O=S(=O)(Nc1cccc(Cl)c1)c1ccc(-n2cccn2)cc1
-11%,-1.0%,-18%,5,O=C(Nc1ccccc1C(=O)N1CCCC1)c1cccc(S(=O)(=O)N2CCCCC2)c1
-7%,-2.7%,-5%,-4,CCOC(=O)C1CCN(S(=O)(=O)c2ccc(C(C)=O)cc2)CC1
?,-1.7%,12%,-3,Cc1ccc(NC(=O)CCl)cc1S(=O)(=O)N1CCCCCC1
1%,-4.6%,4%,7,O=C(CSc1ccc(-c2ccc(F)cc2)nn1)N1CCCc2ccccc21
-16%,0.2%,-5%,-9,COc1ccc2c(c1OC)C(=O)N1N=C(c3ccc(O)cc3)CC21 (centres undefined)
.,0.1%,8%,.,COc1ccc(NC(=S)NC(=O)c2cncc(Br)c2)cc1
-12%,?,-12%,.,COc1ccc(C(=O)C2CCCN(C(=O)c3cc(C)on3)C2)cc1F (centres undefined)
2%,0.3%,?,-8,COc1cccc(/C=N/NC(=O)CNC(=O)c2ccco2)c1O
17%,0.9%,-3%,.,CCc1ccc(CN2CCC(n3nccc3NC(=O)c3ccccc3Cl)CC2)cc1
-2%,0.1%,-5%,4,CC/C(=N\NC(N)=O)c1ccc(OC(F)F)cc1
-53%,-2.0%,-12%,.,Cc1cccnc1NC(=S)NC(=O)c1oc2ccccc2c1C
?,3.4%,?,-4,Cc1[nH]c2ccccc2c1/C=N/Nc1nc2ccccc2[nH]1
1%,5.0%,5%,.,COc1ccc(CN2CCNC(=O)C2CC(=O)NCC2CCOCC2)cc1C (centres undefined)
-6%,0.8%,-15%,7,O=S(=O)(Cc1ccccc1)N1CCN(C2Cc3ccccc3C2)CC1
-21%,?,?,11,O=C(O)CSCC(=O)Nc1ccc(-c2nc3ccccc3s2)cc1
15%,1.2%,-5%,-2,COc1cc([N+](=O)[O-])cc(/C=N/NC(=O)c2ccc(NC(=O)c3ccc(C)cc3)cc2)c1O
-6%,-0.3%,-15%,-3,COc1cccc(NC(=O)C2CCCN2C(=O)Nc2ccccc2F)c1 (centres undefined)
-7%,4.2%,?,.,CC(Oc1ccc(Cl)cc1Cl)C(=O)NNC(=O)c1cccnc1 (centres undefined)
2%,1.4%,1%,7,COc1cc(OC)nc(/N=C/N(C)C)n1
-32%,5.6%,0%,.,COc1ccc(/C=C/C(=O)Oc2ccc(C)cc2)cc1
-2%,-1.2%,-7%,.,O=[N+]([O-])c1ccccc1S(=O)(=O)NC1CC2CCC1C2 (centres undefined)
-3%,-0.7%,0%,.,Cc1nc(Cl)sc1C(=O)Nc1ccc(C(F)(F)F)cc1
12%,-0.2%,-11%,.,Cc1ccc(NC(=S)N2CCC(NC(=O)c3cccc(F)c3)CC2)cc1
2%,0.2%,0%,-2,Cc1ccc(-n2c(SCC(=O)N3CCCc4ccccc43)nnc2-c2cccnc2)c(C)c1
0%,?,-18%,.,COc1ccccc1N(CC(=O)N1CCOCC1)S(C)(=O)=O
-44%,?,?,-7,CC1CC1c1ccc(/C=C(\C#N)C(=O)Nc2ccc(Cl)cc2)o1 (centres undefined)
-4%,2.7%,-24%,.,O=C(Nc1c2c(nn1-c1ccc(F)cc1)CS(=O)(=O)C2)C1CCCC1
-28%,-0.1%,1%,3,O=C(Nc1ccc(Cl)c(Cl)c1)OCc1cccnc1
